E coli growth: E. coli growth inhibition, primary screen, OD600. Escherichia coli growth, 23 h; stronger effect = lower value. AID 1053175, 2014. OD600 absorbance (no concentration beside the values). 0.21% of 330,000 active;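 active means OD600 absorbance below the run mean of sample wells minus 3.6 SD, in any replicate, cut at about 0.56 in these data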;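 further: stock transfer was 300 nL into about 60 µL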
UCH37 DUB inh: inhibitors of human UCH37 deubiquitinase, primary screen, biochemical, Ub-AMC cleavage, fluorescence; Ubiquitin carboxyl-terminal hydrolase isozyme L5 (Homo sapiens), Q9Y5K5; purified proteasome/UCH37; inhibition, % (concentration not given with the values); 0.33% of 330,000 active;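 active means mean of two replicates above 20%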;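 further: 0% = compound-free wells with enzyme and 100% = wells lacking proteasome; stock transfer was 100 nL into about 20 µL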
Target sequence (Q9Y5K5 whole entry, looked up): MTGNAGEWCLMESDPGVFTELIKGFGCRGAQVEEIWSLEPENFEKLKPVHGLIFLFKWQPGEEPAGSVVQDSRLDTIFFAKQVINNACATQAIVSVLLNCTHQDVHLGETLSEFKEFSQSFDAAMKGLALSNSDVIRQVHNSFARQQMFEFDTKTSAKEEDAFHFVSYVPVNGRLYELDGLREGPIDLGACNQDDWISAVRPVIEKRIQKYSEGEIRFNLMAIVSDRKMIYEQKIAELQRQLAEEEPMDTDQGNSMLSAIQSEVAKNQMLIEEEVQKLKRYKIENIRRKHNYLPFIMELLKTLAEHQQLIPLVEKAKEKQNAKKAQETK
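Schedule: 30 min plus 25 min, room temperature / Material: human UCH37 within purified proteasomes / Technique: AMC fluorescence intensity at 355/460 nm / Buffer or medium: pH 7.4 Tris-HCl (50 mM) with ovalbumin, ATP-MgCl2, DTT / Controls: wells without proteasome as full block, compound-free enzyme plus substrate as uninhibited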
Bfl-1 A1 inh: caspase 3/7 activation in MEF A1-2A-BIM cells, primary screen, A1 inhibitor project, cell-based, luminescence, HTS | Caspase-Glo 3/7 luminescence, 3 h; percent of clofoctol response, vehicle zero | caspase activation, % (concentration not given with the values) | 0.066% of 330,000 active | AID 2462, 2010;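 active means over half of replicate activation scores above 10%, or exactly half above 10 with the replicate mean above 10; inconclusive means replicate mean below 10 yet half the replicates above 10; inactive means over half of replicates below 10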;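 further: wells of about 30 µL received 50 nL stock; many hits fall short of the cut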
AF4-AF9 inh: inhibitors of AF4 peptide binding to AF9, primary screen, biochemical, AlphaScreen, biotin-AF4 peptide, FLAG-AF9, single point; Protein AF-9 (Homo sapiens), P42568; inhibition, % at 10 µM; 0.47% of 350,000 active; AID 651704, 2012;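 active means every replicate reaching a set inhibition limit, whatever the replicate mean, cut at about 25% in these data; inconclusive means mean inhibition reaches that limit but some replicates miss it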;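 further: 0% = plate neutral control median and 100% = total signal loss; the record names both 10 and 1 µM as test concentration; the first replicate is given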
Target sequence (P42568 whole entry, looked up): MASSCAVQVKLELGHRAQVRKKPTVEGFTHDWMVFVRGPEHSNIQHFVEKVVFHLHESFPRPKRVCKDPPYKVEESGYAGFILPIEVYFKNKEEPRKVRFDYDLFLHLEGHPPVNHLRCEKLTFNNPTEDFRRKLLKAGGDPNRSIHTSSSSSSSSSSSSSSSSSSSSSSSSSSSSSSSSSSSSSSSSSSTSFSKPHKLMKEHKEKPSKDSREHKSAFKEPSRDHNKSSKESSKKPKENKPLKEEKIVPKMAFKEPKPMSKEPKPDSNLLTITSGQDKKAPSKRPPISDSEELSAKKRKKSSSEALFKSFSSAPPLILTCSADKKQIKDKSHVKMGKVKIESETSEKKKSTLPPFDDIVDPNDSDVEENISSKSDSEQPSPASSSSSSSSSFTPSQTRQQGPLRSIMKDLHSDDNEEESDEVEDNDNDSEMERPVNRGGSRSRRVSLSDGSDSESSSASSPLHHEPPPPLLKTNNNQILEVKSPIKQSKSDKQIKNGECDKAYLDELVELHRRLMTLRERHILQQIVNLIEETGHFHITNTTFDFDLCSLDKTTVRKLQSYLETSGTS
rRNA inh HTS: reduced GFP signal of wild-type E. coli, primary screen, bacterial rRNA inhibitor project, GFP/RFP fluorescence, OD600, single point. 1.6% of 350,000 active. GFP signal change (wild-type ribosome), % (no concentration beside the values). E. coli WT GFP vs humanized-ribosome RFP mutants, 24 h; stronger effect = lower value; DMSO median 0, no signal -100;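 active means significant combined selectivity score with lowered wild-type GFP, culture density cut under 30%, mutant RFP and density less affected; inactive means any of these conditions unmet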; further: one replicate is shown; some compounds called inactive have numbers as strong as hits
FGF22 binding: binders of human FGF22 protein, primary screen, FGF22 synaptogenesis inhibitor project, biophysical, thermal shift, single point; Fibroblast growth factor 22 (Homo sapiens), Q9HCT0; recombinant FGF22 thermal shift, SYPRO orange fluorescence; percent of sucrose octasulfate shift, DMSO zero; calls only at 9.99 µM; 1.5% of 340,000 active;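 active means melting point raised past a set limit in the mean and every replicate; inconclusive means no clear call; three in four hits are not shown here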
Target sequence (Q9HCT0 whole entry, looked up): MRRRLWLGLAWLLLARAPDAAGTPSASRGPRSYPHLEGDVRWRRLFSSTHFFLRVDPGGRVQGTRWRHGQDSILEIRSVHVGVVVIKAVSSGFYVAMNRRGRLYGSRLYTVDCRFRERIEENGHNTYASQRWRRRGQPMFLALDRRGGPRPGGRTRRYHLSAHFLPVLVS
T cruzi inh: inhibitors of intracellular T. cruzi growth, primary screen, luminescence, NIH3T3 host cells | 1.4% of 300,000 active | inhibition, % (test concentration not listed) | AID 1885, 2009 | T. cruzi beta-gal in NIH3T3, 90 h;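 active means mean inhibition across valid replicates above about 55%, limit read from the data; inconclusive means mean below that limit but half or more replicates reach it; inactive means mean below it, under half of replicates reach it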;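 further: signal also drops with host cell toxicity which is not excluded here; 0% = plate median of DMSO wells and 100% = zero luminescence signal; higher percent means less beta-gal luminescence so fewer parasites; stock transfer was 50 nL into about 50 µL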
Beta cell apopt: inhibitors of cytokine-induced beta cell apoptosis, primary screen, luminescence | INS-1E cytokine-induced death, ATP luminescence, 48 h; percent of positive-control rescue, neutral wells zero | AID 435005, 2010 | 0.8% of 300,000 active | protection from apoptosis, % (concentration not given with the values);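 active means all replicates at 75% or more, or half of them and the mean; inconclusive means half reach 75% but not the mean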;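 further: 0% = cytokine-treated negative control wells and 100% = positive control rescue; higher means more ATP so stronger rescue from cytokine killing; wells of about 40 µL received 100 nL stock; the first replicate is given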
rRNA inh HTS OD600: second read-out of rRNA inh HTS, no call of its own (marks repeat the call); OD600 change, %; measured here: OD600 growth;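 optical density of the mix in the first replicate; 0 = DMSO median and -100 = no signal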
rRNA inh HTS RFP: recorded beside rRNA inh HTS, whose call it bears; RFP signal change, %; measured here: RFP humanized mutant strains;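 first replicate; 0 = DMSO median and -100 = no signal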
Active calls of the source: *; i = inactive; ? = inconclusive; . = no result given. This is a subset; rates above refer to the full screens.

#	Molecule	E coli growth	UCH37 DUB inh	Bfl-1 A1 inh	AF4-AF9 inh	rRNA inh HTS
1	Cc1ccccc1C(=O)Nc1cccc(NC(=O)Cn2cnc3c(=O)n(C)c(=O)n(C)c32)c1	0.74	0.1	0.6	5.6	-9
2	O=[N+]([O-])c1ccc(Cl)c(S(=O)(=O)/N=C(/Nc2cccnc2)c2ccccc2)c1	0.72	2.5	0.4	2.0	-8
3	Cc1cc(OCC(=O)Nc2cnn(CCCC(=O)O)c2)ccc1[N+](=O)[O-]	0.68	3.1	0.0	-1.3	10
4	O=C(CCc1nc2ccccc2c(=O)[nH]1)OCC(=O)N1CCN(S(=O)(=O)c2ccccc2)CC1	0.71	2.8	1.5	.	.
5	Nn1c(SCc2ccc(Br)cc2)nnc1-c1cccnc1	0.65	5.3	1.2	0.4	10
6	O=C1CN(C(=O)Cn2ncc(Cl)c(Cl)c2=O)c2ccccc2N1	0.7	4.0	.	-5.3	5
7	Cc1cc(NC(=O)c2ccc3c(c2)C(=O)N(C)C3=O)no1	0.71	3.3	-2.0	.	.
8	CC(C)CNc1nc(N)c([N+](=O)[O-])c(NCc2ccccc2)n1	0.7	5.1	0.3	-1.0	5
9	CN1CCc2c(n(CC(O)CNCc3ccccc3)c3ccccc23)C1=O (centres undefined)	0.73	3.4	0.3	2.5	26
10	O=C(NCc1ccccc1F)C1CCC(=O)N(Cc2ccc(Cl)cc2)C1 (centres undefined)	0.69	1.1	0.0	-3.3	-1
11	O=C(NCc1ccco1)C(c1ccccc1)N(C(=O)Cc1cccs1)c1ccccc1F (centres undefined)	0.7	1.7	0.3	.	.
12	NC(=O)c1ccccc1NC(=O)CSC1=NCCS1	0.69	9.7	0.4	-0.3	11
13	Cc1[nH]nc(SCC(=O)NCCc2ccccc2)c1[N+](=O)[O-]	.	.	0.4	0.2	-13
14	CCN(CC)C(=O)C1CCCN(Cc2cccc(Oc3ccccc3)c2)C1 (centres undefined)	0.64	7.7	-0.5	2.5	-10
15	COc1ccc2c(c1OC)C(=O)N1C2SC[C@H]1C(=O)NCCC(C)C (some centres undefined)	0.68	-136	0.2	-2.5	12

#	rRNA inh HTS OD600	rRNA inh HTS RFP	FGF22 binding	T cruzi inh	Beta cell apopt
1	-4	-8.5	i	-63	10
2	-2	-4.2	i	.	-10
3	11	-0.5	i	-8	-6
4	.	.	.	-12	-7
5	2	0.5	i	-8	2
6	8	6.4	i	75*	.
7	.	.	.	-4	2
8	3	-1.0	i	-5	-5
9	3	23	i	-28	3
10	-4	1.9	i	-4	3
11	.	.	.	-4	-4
12	13	1.8	i	-9	5
13	-8	0.8	i	-10	3
14	0	1.1	i	42	-5
15	9	-0.4	i	-1	-7

3 compounds drawn at random from those above, as already listed:
#	Molecule	E coli growth	UCH37 DUB inh	Bfl-1 A1 inh	AF4-AF9 inh	rRNA inh HTS
4	O=C(CCc1nc2ccccc2c(=O)[nH]1)OCC(=O)N1CCN(S(=O)(=O)c2ccccc2)CC1	0.71	2.8	1.5	.	.
2	O=[N+]([O-])c1ccc(Cl)c(S(=O)(=O)/N=C(/Nc2cccnc2)c2ccccc2)c1	0.72	2.5	0.4	2.0	-8
5	Nn1c(SCc2ccc(Br)cc2)nnc1-c1cccnc1	0.65	5.3	1.2	0.4	10

#	rRNA inh HTS OD600	rRNA inh HTS RFP	FGF22 binding	T cruzi inh	Beta cell apopt
4	.	.	.	-12	-7
2	-2	-4.2	i	.	-10
5	2	0.5	i	-8	2

Following part.
#	Molecule	E coli growth	UCH37 DUB inh	Bfl-1 A1 inh	AF4-AF9 inh	rRNA inh HTS
16	C/C(=N\Nc1nc2ccccc2s1)c1ccc2c(c1)OCO2	.	.	0.3	0.6	-7
17	CCCCn1c(N)c(N(CCOC)C(=O)COC(=O)COc2cc(C)c(Cl)cc2C(C)C)c(=O)[nH]c1=O	0.7	3.9	0.0	2.2	-11
18	CC(=O)c1ccc(NC(=O)CCc2nnc3ccc(N4CCCC4)nn23)cc1	0.68	1.4	2.2	0.4	13
19	COc1cccc(OCC(O)CO)c1 (centres undefined)	0.71	1.2	0.9	0.5	.
20	O=C(Nc1ccccc1C(=O)N1CCCCCC1)c1ccccc1	0.7	3.3	1.0	-3.9	2
21	COc1cc(/C=C/C(=O)Nc2ccc(N3CCCCC3)c(S(=O)(=O)Nc3ccccc3Cl)c2)cc(OC)c1OC	0.68	-13	-0.1	.	.
22	COC(CNC(=O)CC1C(=O)N(Cc2ccccc2)C(C)c2nc3ccccc3n21)OC (centres undefined)	0.68	2.7	-0.7	-2.3	2
23	Clc1cccc(Nc2nc(-c3cccnc3)cs2)c1	0.69	4.2	-1.2	1.4	-30
24	COc1cccc(Oc2cc(Cl)nc(N)n2)c1	0.69	0.3	-0.3	-3.1	-3
25	COc1ccc(/C=C/C(=O)OCC(=O)N2CC(=O)Nc3ccccc32)cc1	0.68	2.8	-0.8	.	.
26	CC1(C)CC(=O)C2(CC3=C(CC(C)(C)CC3=O)O2)C(=O)C1	0.67	3.2	0.6	.	.
27	COc1ccc(Cl)cc1NC(=O)NCC1CCN(Cc2cc(C)ccc2C)CC1	0.63	3.7	-5.3	8.4	-48
28	O=C(OCc1nnc(-c2ccc(Cl)cc2)o1)c1ccc(O)cc1	0.68	-0.3	-0.1	-2.9	-16
29	Cc1ccc(N(C(=O)c2ccn[nH]2)C(C(=O)NC2CCCC2)c2cccs2)cc1 (centres undefined)	0.67	-0.2	-0.7	-2.1	19
30	CC(C)N(C(=O)Cn1cnc2cc([N+](=O)[O-])ccc2c1=O)C(C)C	0.69	1.0	0.8	.	.

#	rRNA inh HTS OD600	rRNA inh HTS RFP	FGF22 binding	T cruzi inh	Beta cell apopt
16	-7	0.8	i	39	3
17	-39	1.9	i	0	-5
18	10	-0.4	i	-21	.
19	.	.	.	-12	.
20	-5	-1.9	i	-12	2
21	.	.	.	?	-2
22	-7	-0.5	i	5	-5
23	-23	-15	i	59*	3
24	-4	-2.2	i	3	-4
25	.	.	.	2	4
26	.	.	.	-14	-12
27	-80	-17	i	38	6
28	-26	-5.4	i	8	-8
29	13	1.3	i	-3	-2
30	.	.	.	13	0

#	Molecule	E coli growth	UCH37 DUB inh	Bfl-1 A1 inh	AF4-AF9 inh	rRNA inh HTS
31	COc1ccc(-c2ccc(S(=O)(=O)N3CCOCC3)cc2)cc1	0.72	-1.5	0.2	-7.5	12
32	Nc1ccccc1C#Cc1cnccn1	0.72	3.3	-2.9	-12	4
33	CCN(CC(=O)Nc1c(F)cccc1F)C(=O)C1=COCCO1	0.71	1.8	-0.2	-1.5	8
34	CN(C(=O)COC(=O)C1CCN(S(=O)(=O)c2c(Cl)cccc2Cl)CC1)c1ccccc1	0.7	-0.1	-0.1	1.4	-16
35	Cc1ccccc1C(=O)N1CCC(C(=O)N2CCN(c3ncccn3)CC2)CC1	0.67	-1.1	-0.2	-1.2	10
36	C=CCOC(=O)C1=C(C)NC(=S)NC1c1cccs1 (centres undefined)	0.68	1.1	0.9	-2.5	3
37	O=c1c2ccccc2nc2n1C(CSc1ccc(F)cc1)CN2 (centres undefined)	0.7	0.4	0.6	.	.
38	CCCn1c(SCC(=O)NC2CCCCC2)nnc1-c1cccnc1	0.69	1.4	0.6	0.8	4
39	Cc1ccc(N/C(N)=N/c2nc(CSc3nnc(N)s3)cc(=O)[nH]2)cc1	0.66	1.0	0.2	-5.8	13
40	CCOC(=O)c1c(NC(=O)COC(=O)c2cc(OC)c(OC)cc2[N+](=O)[O-])sc(C)c1CC	0.67	7.2	-0.2	3.3	2
41	COc1ccc(-n2cc(CNCCc3ncc(C)[nH]3)c(-c3ccccc3Cl)n2)cc1	0.73	6.4	0.9	6.3	3
42	COc1ccc(OC)c(/C=N/NC(=O)c2cc[n+](CC(=O)c3ccccc3)cc2)c1	.	.	-0.1	6.8	9
43	CCOC(=O)c1ccc(N=NN(C)C)cc1	0.7	8.3	-1.2	1.1	.
44	CCOC(=O)C1=C(COC(=O)c2cc(S(=O)(=O)N3CCOCC3)ccc2F)NC(=O)NC1C (centres undefined)	0.67	-0.3	.	1.8	4
45	NC(=O)C1CCN(C(=O)/C=C/c2cc(Br)ccc2F)CC1	0.71	0.3	0.6	-2.1	6

#	rRNA inh HTS OD600	rRNA inh HTS RFP	FGF22 binding	T cruzi inh	Beta cell apopt
31	8	-1.9	i	-15	-4
32	11	-2.0	i	-28	-10
33	8	-3.2	i	-13	.
34	-27	2.4	i	-3	2
35	9	0.0	i	.	-6
36	8	2.1	i	19	0
37	.	.	.	1	-3
38	5	-3.7	i	-1	2
39	8	7.6	i	-8	1
40	0	8.5	i	14	-3
41	-7	0.9	i	23	19
42	9	2.1	i	-4	-9
43	.	.	i	1	1
44	4	-0.8	i	.	.
45	5	1.6	i	-13	-1

#	Molecule	E coli growth	UCH37 DUB inh	Bfl-1 A1 inh	AF4-AF9 inh	rRNA inh HTS
46	CC(C)NC(=O)c1onc(CSc2ccccc2)c1C(=O)O	0.62	3.0	0.9	-0.6	0
47	O=C(Nc1cccn(Cc2c(Cl)cccc2Cl)c1=O)c1ccc(Cl)cc1	0.72	-13	0.5	.	.
48	COc1ccc2c(C)cc(SCC(=O)Nc3ncc(Cl)cc3Cl)nc2c1	0.72	-4.0	0.6	6.9	3
49	CCn1ccnc1CN(C)Cc1nc(-c2ccc3c(c2)OCO3)no1	0.74	-1.2	-0.3	-0.3	-5
50	CC(NC(=S)NCCCN1CCOCC1)C12CC3CC(CC(C3)C1)C2 (centres undefined)	0.73	-1.5	0.0	-3.2	2
51	O=C(O)c1cccnc1SCC(=O)N1CCCCCC1	0.74	3.5	1.4	.	.
52	Cc1nc2cc(NC(=O)CS(=O)(=O)c3ccc(F)cc3)ccc2s1	0.69	-2.3	0.9	-2.9	-7
53	CC(=O)C1C(=O)C=C(c2ccco2)CC1c1ccccc1 (centres undefined)	0.71	5.1	0.8	.	.
54	O=C(Nc1ccccc1N1CCOCC1)c1cc(F)cc(F)c1	0.66	1.3	0.8	1.4	23
55	COc1ccc2nc3oc(C(=O)N4CC(C)CC(C)C4)cc3cc2c1 (centres undefined)	0.63	-242	-1.5	.	.

#	rRNA inh HTS OD600	rRNA inh HTS RFP	FGF22 binding	T cruzi inh	Beta cell apopt
46	3	-2.1	i	-12	-7
47	.	.	.	39	-5
48	0	-7.6	i	7	.
49	-3	5.0	i	-12	-4
50	1	-0.2	i	.	-5
51	.	.	.	.	-8
52	-9	2.0	i	3	-2
53	.	.	.	-4	-2
54	9	0.4	i	-13	-5
55	.	.	.	14	4

Screening results (PubChem)
